TRPML1 agonist: human mucolipin-1 channel agonism | 0.12% of 410,000 active | AID 624414 | Q9GZU1 | activation, % (no concentration beside the values) | TRPML1-expressing cells, Ca2+ dye fluorescence, FDSS; host cell line not named in the record; reference of the full effect not given here; in the data active = activation above about 50%; inconclusive = about 30% to 50%; inactive = below about 30%; also: 0% is about no effect; the text of the record puts the active cut at 80%
Target sequence (Q9GZU1 whole entry, looked up): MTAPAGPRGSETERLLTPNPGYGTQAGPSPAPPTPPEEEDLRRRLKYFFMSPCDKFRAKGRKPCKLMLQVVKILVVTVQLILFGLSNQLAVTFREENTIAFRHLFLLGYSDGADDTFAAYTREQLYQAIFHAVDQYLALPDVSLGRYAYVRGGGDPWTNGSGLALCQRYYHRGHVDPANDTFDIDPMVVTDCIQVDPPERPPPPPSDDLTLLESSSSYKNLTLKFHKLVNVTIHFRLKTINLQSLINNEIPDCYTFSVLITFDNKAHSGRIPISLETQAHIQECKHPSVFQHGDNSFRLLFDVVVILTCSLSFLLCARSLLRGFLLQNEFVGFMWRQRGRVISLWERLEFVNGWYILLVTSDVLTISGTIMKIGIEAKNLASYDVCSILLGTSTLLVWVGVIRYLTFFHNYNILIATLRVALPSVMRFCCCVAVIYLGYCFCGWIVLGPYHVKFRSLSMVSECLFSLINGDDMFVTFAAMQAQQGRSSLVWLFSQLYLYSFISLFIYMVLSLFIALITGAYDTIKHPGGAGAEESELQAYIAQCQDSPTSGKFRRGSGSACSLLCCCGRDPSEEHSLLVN
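In this qHTS format, compounds were pin-transferred onto Ca8-dye-loaded TRPML1-DL cells induced with Tet overnight, and intracellular Ca2+ fluorescence was recorded kinetically for 110 s after a 10 s baseline. A subsequent 4uM final 54-4 (EC80) addition followed by a second 110 s read served as the antagonist phase.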
Six1-Eya2 inh: inhibitors of human Six1/Eya2 interaction. Q15475+O00167. AlphaScreen GST-Six1/His-Eya2 binding, biochemical; hits give low values; control for the full effect not named in the record. activity change, % (test concentration not listed). 0.56% of 360,000 active. AID 651725; in the data active = activity change below about -65%; inconclusive = about -30% to -65%; inactive = above about -30%; also: % is scaled to controls: 0 for no effect and ±100 for the full control effect; compound concentration not given in the record
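AlphaScreen luminescence read after one hour at 37 °C in darkness. Pin-transferred compounds met GST-Six1 and His-Eya2 protein (5X stock 250 nM/500 nM) plus glutathione donor and Ni-chelate acceptor beads (5X, 50 ug/mL).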
D2 potentiator: positive allosteric modulators of human D2 dopamine receptor. DiscoveRx D2 beta-arrestin cells, luminescence, 90 min; 100% = 57 uM dopamine signal. 0.23% of 360,000 active. potentiation, % (test concentration not listed); active = potentiation of 50% or more; inconclusive = 30% to 50%; inactive = 30% or less;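 also: compound concentration not given in the record; tested on top of an EC20 dose of dopamine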
Target sequence (P14416 whole entry, looked up): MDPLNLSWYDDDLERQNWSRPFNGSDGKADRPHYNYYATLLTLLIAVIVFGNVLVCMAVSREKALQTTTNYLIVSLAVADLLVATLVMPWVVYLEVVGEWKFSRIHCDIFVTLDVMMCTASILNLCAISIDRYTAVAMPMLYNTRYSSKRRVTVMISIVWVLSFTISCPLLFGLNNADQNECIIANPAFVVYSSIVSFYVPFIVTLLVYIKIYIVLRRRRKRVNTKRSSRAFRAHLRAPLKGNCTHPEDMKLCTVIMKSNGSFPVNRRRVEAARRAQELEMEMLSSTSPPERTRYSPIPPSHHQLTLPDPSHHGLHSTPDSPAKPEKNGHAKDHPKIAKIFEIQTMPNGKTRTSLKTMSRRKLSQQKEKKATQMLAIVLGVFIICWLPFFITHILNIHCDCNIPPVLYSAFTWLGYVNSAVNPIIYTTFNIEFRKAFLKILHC
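PathHunter beta-arrestin assay in DiscoveRx D2 cells. Compounds were added with an EC20 of dopamine (50 nM final) for 90 min at 37 deg C. Luminescence was read 1 h after detection reagent, with 57 uM dopamine as the EC100 control.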
D2 ag: activates the human D2 dopamine receptor; activation, % (concentration not given with the values); 0.084% of 360,000 active; DiscoveRx PathHunter D2 beta-arrestin, luminescence, 90 min; 100% = 57 uM dopamine signal; in the data active = activation above about 40%; inconclusive = about 15% to 40%; inactive = below about 15%; also: compound concentration not given in the record; the text of the record calls up to 30% inactive
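DiscoveRx PathHunter D2 beta-arrestin cells (2,100/well) attached overnight, then compound-stimulated 90 min at 37 C in HBSS/10 mM HEPES/0.1% Tween-20 buffer; beta-galactosidase complementation read by luminescence after 1 h at ambient temperature. Dopamine 57 uM final (EC100) as control.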
PINK1 modulator: changes PINK1 expression | 0.2% of 410,000 active | Potency, µM (doses to about 76.6 µM), without a hit: at the top dose activation (PINK1 increase), most hits filed as activators | PINK1 immunofluorescence, high-content cytometry, 24 h; active = well fitted activation curve with a large enough effect; inconclusive = small, poorly fitted or top-dose-only effect; inactive = flat fitted curve, though single readings scatter; cell line not stated here;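 also: potency is read from the fitted curve at half-maximal effect; % of control where 0% means no effect; nearly all actives have a fitted effect of over 65% in size; a mitochondrial uncoupler was the plate control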
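Compound titrations (5 concentrations, 24 h) on a stable cell line; DMSO and CCCP controls. Endpoint: fixed-cell PINK1 immunofluorescence with mitochondrial, cell and nuclear markers, scanned by microplate cytometer.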
CtBP-E1A inh: blocks the CtBP interaction with E1A | AlphaScreen GST-E1A/His-CtBP binding, 1536-well; hits give low values; control for the full effect not named in the record | activity change, % (concentration not given with the values) | 0.49% of 340,000 active; in the data active means activity change below about -65%; inconclusive means about -30% to -65%; inactive means above about -30%; also: % is scaled to controls: 0 for no effect and ±100 for the full control effect
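Protein mix (5X: 125 nM each GST-E1A, His-CtBP) was incubated with pinned compound 2 h at 37 deg C in dark, in 50 mM Tris pH 8.0 buffer with 300 mM NaCl. Glutathione donor and nickel acceptor beads followed; AlphaScreen signal read after 1 h.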
* hit, by the source's call; u = inconclusive; x = not tested or not shown; [ ] = another dose, or the depositor's remark.

Compound	Six1-Eya2 inh	TRPML1 agonist	PINK1 modulator	CtBP-E1A inh	D2 ag	D2 potentiator
Cc1cc(C)c(NC(=O)Nc2ccccc2C)c(Cl)c1	5	-0.5	-1.7%	x	-4.1	-8
CN(C(=O)COC(=O)c1cc([N+](=O)[O-])ccc1Sc1ccccc1)C1CCS(=O)(=O)C1 (stereo unspecified)	-6	-1.0	-0.2%	-3	-1.5	-4
CCCNS(=O)(=O)c1ccc(OCC(=O)N2CCCC2)cc1	3	-0.2	0.2%	-11	3.2	1
CC(C)C(NC(=O)CN1C(=O)c2cccc3cccc1c23)C(C)C	8	-0.1	-0.4%	x	-0.2	-27
COc1cccc(C(=O)NCC2CCCN(C3CCCCC3)C2)c1OC (stereo unspecified)	-1	-0.5	-0.1%	11	-0.4	1
O=Nc1c(O)cc(O)c2ccccc12	-22	-0.3	1.5%	-6	-9.1	-10
CC(C)OP(=O)(OC(C)C)C1(O)C(=O)Nc2ccccc21 (stereo unspecified)	5	-0.1	1.0%	5	-4.7	3
CN(C(=O)c1cccc(NC(=O)Cc2ccc(NC(=O)C3CCN(C(=O)C4CCC4)CC3)cc2)c1)C1CCCCC1	-5	-0.2	0.2%	-4	0.2	x
COc1ccc(-c2[nH]ncc2-c2cnc(C)s2)c(O)c1	-3	0.2	-5.4%[38.3 µM]	13	0.4	2
O=C(COc1cccc(-n2cnnn2)c1)NC1CCCCC1	5	-0.4	-0.1%	-9	-3.0	-28
CC(C)(C)c1ccc(OCC(=O)N2CCN(C=O)CC2)cc1	5	-0.5	-1.3%	4	3.8	-5
COC(=O)[C@@H](NC(=O)NCc1ccccc1Cl)C(C)C	-12	-0.8	1.8%	-4	-2.4	-3
CC(C)C(=O)NC(=S)N(Cc1ccccc1)Cc1ccccc1	-3	1.4	0.9%	x	-7.7	-10
Cc1cc(C2(c3ccc(O)c(C)c3)C(=O)Nc3ccccc32)ccc1O	-19	1.2	-5.9%	-4	-5.1	-6
CCNc1nc(NCc2ccccc2)nc(SCC(N)=O)n1	1	0.4	-0.8%	0	-0.9	0
CCC(Sc1nc(C)cc(=O)[nH]1)C(=O)Nc1sc2c(c1C#N)CCCC2 (stereo unspecified)	-2	1.1	x	8	2.9	10
O=C(Nc1ccc(N2CCCCC2)cc1)c1ccccn1	-12	0.2	2.2%	-11	-1.1	-9
CC(C)[C@H](NC(=O)[C@@H]1Cc2ccccc2CN1C(=O)OC(C)(C)C)C(=O)NCC1CCC(C(=O)O)CC1 (stereo partly specified)	2	x	-0.1%	0	-8.8	-9
C=CCOc1ccc(CNc2ccc3[nH]c(=O)[nH]c3c2)cc1OCC	-26	0.3	-0.1%	-22	2.5	5
O=[N+]([O-])c1cccc(-c2noc(COc3ccccc3)n2)c1	13	-0.8	1.3%	-4	-1.6	-2
CCn1nc(C(=O)N[C@@H](CCSC)c2nc3ccccc3[nH]2)c2ccccc2c1=O	-12	2.0	1.6%	-4	-4.7	-21
Cc1ccc(-n2nc(C)cc2N)c(C)c1	-3	-0.6	4.9%	2	-3.9	0
O=C(Cn1c(-c2ccccc2Cl)nc2ccccc21)Nc1cccc(Cl)c1	1	0.1	2.7%	2	-2.8	-7
CC(NC(N)=O)C(=O)Nc1ccc(Cl)c(S(=O)(=O)Nc2ccc(Br)cc2)c1 (stereo unspecified)	5	-0.2	0.0%	-2	1.3	-3
COCCNC(=O)CC(c1ccccc1)c1ccccc1	1	-0.1	0.6%	10	-6.7	-13
CC(=O)Nc1nc2[nH]ccc2c(=O)[nH]1	-7	-0.1	2.5%	6	-4.6	-7
CCOC(=O)N(C)c1c(CC)nc2c(OCc3cccc(Cl)c3)cccn12	3	-1.0	2.3%	1	-4.3	-4
CCOc1ccc(CCNC(=O)COn2nnc3ccc(S(=O)(=O)N4CCOCC4)cc32)cc1OCC	-1	1.9	-1.5%	-2	2.8	-3
O=C(CNc1n[nH]c(=O)[nH]c1=O)N/N=C/c1cccnc1	-18	0.6	-2.6%	-5	-1.3	-3
Cc1ccc(-n2nc(C)c3cc(C(=O)O)sc32)cc1	-1	-0.2	-1.7%	-1	-1.7	-4
Cc1ccc2[nH]c3c(=O)n(Cc4ccncc4)cnc3c2c1	-3	2.5	0.5%	0	0.4	11
Nc1nnc(CCCCc2cccs2)o1	7	-0.5	-1.8%	2	-3.2	-19
O=c1cc(O)c2ccc(O)cc2o1	-16	0.5	0.0%	-5	-0.5	11
CC(=O)Nc1ccccc1C(=O)C(=O)Nc1ccc(C(=O)NCC2CCCO2)cc1 (stereo unspecified)	4	2.0	0.4%	-14	-1.1	0
O=C(COc1ccccc1)Nc1nnc(COc2ccccc2)s1	0	1.3	11%	-17	0.7	-1
CC(C)c1ccc(NC(=S)N2CCN(S(=O)(=O)c3ccccc3)CC2)cc1	-7	-0.3	-0.4%	-8	-2.0	8
COc1ccc(OC)c(S(=O)(=O)Nc2cc3c(cc2N2CCCC2)n(C)c(=O)c(=O)n3C)c1	-20	-0.7	0.2%	u	0.8	8
O=C(NCCC1=CCCCC1)c1cc(-c2ccncc2)nc2ccccc12	6	2.6	-0.7%	-4	1.4	-2
Cn1c(SCC(=O)Nc2ccccc2[N+](=O)[O-])nnc1C(F)(F)F	1	-0.8	0.2%	8	4.8	-4
O=C(O)CCC(=O)N1N=C(c2ccccc2)CC1c1cccs1 (stereo unspecified)	-9	-0.4	0.0%	3	-4.3	-6
O=S(=O)(c1ccc(-c2ccon2)s1)N1CCCC1	-5	0.8	0.6%	2	3.1	1
COc1ccc(-c2cc(-c3ccccc3)c(C#N)c(S(C)=O)n2)cc1 (stereo unspecified)	3	0.6	-2.9%	-8	-1.0	12
Cc1ccc(COC(=O)c2nn(-c3ccccc3)nc2N)cc1	24	2.9	8.7%	31	-2.2	0
Cc1ccc(NC(=O)CN(C)S(=O)(=O)c2cccc3nsnc23)cc1Cl	-3	2.9	-3.2%	-7	-3.8	-12
COc1ccc(OC)c(S(=O)(=O)n2nnc3ccccc32)c1	u	-0.1	-0.4%	2	-4.6	1
Cc1ncc([N+](=O)[O-])n1CCOC(=O)c1ccc(Cl)cc1Cl	-2	1.5	1.0%	-4	-0.9	0
O=C(CCNS(=O)(=O)c1ccccc1C(F)(F)F)NCCCN1CCOCC1	2	1.0	-1.6%	-17	-1.5	0
COc1ccc(NC(=O)CCN2C(=O)c3cccc([N+](=O)[O-])c3C2=O)cc1	-1	0.1	-0.6%	-14	3.0	3
O=C(CCc1ccccc1)NNC(=O)c1ccc(F)cc1	6	0.7	0.3%	-23	-1.1	2
Cc1ccc(CNC(=O)NC23CC4CC(CC(C4)C2)C3)cc1	7	-0.1	4.1%	0	-0.8	-4
O=C(NC(=O)c1cc([N+](=O)[O-])ccc1Cl)C1=C(N2CCCC2)COC1=O	2	0.4	-0.1%	-22	1.8	-7
CSCC(=O)Nc1cc(C)on1	0	-0.2	-1.9%	4	-2.0	-2
CCn1cc(C(=O)Nc2cccc(NC(C)=O)c2)c2cc(OC)c(OC)cc2c1=O	-7	0.4	2.5%	-7	-0.5	-5
N#CCCn1nc(-c2ccc(Cl)cc2)cc1Nc1ccccc1NC(=O)C(F)(F)F	3	0.0	1.8%	-5	0.6	6
COc1ccc(C(=O)/C=C/c2ccccc2OC)c(OC(=O)c2ccc([N+](=O)[O-])cc2)c1	-1	1.2	2.3%	1	0.6	7
C=CCn1c(SCC(=O)NCc2ccco2)nc2sc3c(c2c1=O)CCCC3	6	0.3	9.1%	-2	-3.9	-6
Cc1ccc(NCc2n[nH]c(=S)n2-c2ccccc2)cc1Cl	-1	-0.8	-0.6%	7	-7.8	-11
CS(=O)(=O)c1ccc(Cl)c(NC(=O)CSc2nnc(C3CC3)n2C2CC2)c1	6	-0.8	-1.2%	1	-2.5	-1
NC(CO)C12CC3CC(CC(C3)C1)C2 (stereo unspecified)	2	-0.7	2.5%	x	-4.1	-18
O=C(NCc1cnc2ccccn12)C1CCC(=O)N(Cc2cccc(F)c2)C1 (stereo unspecified)	-5	0.1	-1.4%	7	-4.4	-18

Compounds shown so far containing a CF3 group, in the order listed:
Compound	Six1-Eya2 inh	TRPML1 agonist	PINK1 modulator	CtBP-E1A inh	D2 ag	D2 potentiator
Cn1c(SCC(=O)Nc2ccccc2[N+](=O)[O-])nnc1C(F)(F)F	1	-0.8	0.2%	8	4.8	-4
O=C(CCNS(=O)(=O)c1ccccc1C(F)(F)F)NCCCN1CCOCC1	2	1.0	-1.6%	-17	-1.5	0
N#CCCn1nc(-c2ccc(Cl)cc2)cc1Nc1ccccc1NC(=O)C(F)(F)F	3	0.0	1.8%	-5	0.6	6

Next part.
Compound	Six1-Eya2 inh	TRPML1 agonist	PINK1 modulator	CtBP-E1A inh	D2 ag	D2 potentiator
C=CCNC(=S)NC(=O)c1csc([N+](=O)[O-])c1	-7	-0.1	0.4%	-1	5.6	-2
CC1(C)NC(=O)N(CC(O)COc2ccc(N3C(=O)c4ccccc4C3=O)cc2)C1=O (stereo unspecified)	1	-1.1	0.3%	0	-3.1	1
Cc1ccc(S(=O)(=O)Nc2nc3ccc(N)cc3s2)cc1	-15	0.5	-0.2%	-3	-3.1	6
CS(=O)(=O)c1ccc(C(=O)Nc2ccccc2Cl)cc1	1	-0.3	-1.0%	x	-3.5	-13
CN(C)C(=O)/C=C\c1cn(-c2ccccc2)nc1-c1ccc2c(c1)OCCO2	6	1.3	0.8%	1	1.4	11
COc1cccc(CNC(=O)c2cccs2)c1	4	-0.6	-0.5%	-2	-1.7	-3
CN(CC(=O)Nc1ccc(Cl)c(C(F)(F)F)c1)C(=O)c1cccs1	-8	-0.8	7.9%	4	0.0	-4
Cc1cc(=O)oc2cc(NC(=O)c3ccccc3C(=O)O)ccc12	-1	-0.3	-0.3%	-9	-1.6	-9
O=C(O)C1C2C=CC3(CN(c4cccc(C(F)(F)F)c4)C(=O)C13)O2 (stereo unspecified)	6	3.0	6.7%[38.3 µM]	6	u	4
Nc1nc(-c2cc3c(cc2Cl)OCCO3)cs1	-3	1.6	-2.0%	-1	3.9	-1
Cc1[nH]nc2ncc(C(=O)c3cc(F)ccc3O)cc12	-4	-0.7	-1.8%	-1	1.0	11
O=C(O)CNC(=O)c1ccc(Sc2ccccc2)c([N+](=O)[O-])c1	2	-0.4	2.3%	0	-7.2	-3
O=c1c(F)cn(C2CCCO2)c(=O)n1Cc1c(Cl)cccc1Cl (stereo unspecified)	6	-0.6	3.2%[38.3 µM]	18	1.9	-8
COc1cccc(-c2cnc(C(O)c3ccccc3)[nH]2)c1 (stereo unspecified)	-9	-1.0	1.1%	-10	-4.3	-12
COCC(C)N=CC1=C(O)CC(C)(C)CC1=O (stereo unspecified)	0	0.5	-3.5%[38.3 µM]	6	-0.1	-5

Screening results (PubChem BioAssay)
